Screening data as filed in PubChem BioAssay.
TRPML1 blocker: qHTS for Inhibitors of the Human Mucolipin Transient Receptor Potential 1 (TRPML1) | Mucolipin-1 (Homo sapiens), Q9GZU1 | TRPML1-inducible cells, Ca2+ dye fluorescence, FDSS; active compounds read low; inhibition of EC80 agonist-evoked calcium signal | activity change, negative = inhibition, % (concentration not given with the values) | actives 0.02% (n = 390,000); in the data active means activity change below about -50%; inconclusive means about -30% to -50%; inactive means above about -30%;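 note: stimulus is agonist 54-4 at its EC80 concentration; % is set by controls: 0 for no effect and ±100 for the full control effect; the text of the record puts the active cut at -80%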
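Calcium fluorescence in TRPML1-DL cells induced overnight with Tet: a 110 s read after compound pin addition, then a 110 s antagonist read after challenge with 54-4 at 4 uM final (EC80).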
Sfp PPTase inh: qHTS Assay for Inhibitors of Bacillus subtilis Sfp phosphopantetheinyl transferase (PPTase) | Potency, µM, for inactives: max response, negative = inhibition, usual class: inhibitors | 4'-phosphopantetheinyl transferase ffp (Bacillus subtilis), Q9F4F7 | Biochemical Sfp PPTase activity, qHTS | actives 3.5% (n = 310,000); active = well fitted inhibition curve with a large enough effect; inconclusive = small, poorly fitted or top-dose-only effect, or another doubt; inactive = no such curve, though single readings can be large or run the other way;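 note: the enzyme is Sfp with the accession as filed and its product quenches rhodamine fluorescence; potency is the fitted concentration of half-maximal effect; 0% = enzyme reaction without inhibitor and -100% = no enzyme wells; top concentration of the series not given in the record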
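Step 1, compound plus 15 nM Sfp-PPTase, 15 min, room temperature. Step 2, add rhodamine-CoA (5 uM) and BHQ-2-YbbR (12.5 uM). Step 3, read 525/598 nm fluorescence at 0 and 30 min.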
ClpP mod: qHTS Assay for Activators of ClpP; actives 1.9% (n = 340,000); ATP-dependent Clp protease proteolytic subunit (Bacillus subtilis (strain 168)), P80244; purified B. subtilis ClpP, FRET peptide cleavage, 20 min; Potency, µM (top dose mostly 57.5 µM), for the others: top-dose activity change, negative = active; active = well fitted falling curve with a large enough effect; inconclusive = small, poorly fitted or top-dose-only effect; inactive = no such curve, though single readings can be large or run the other way; note: potency is the fitted concentration of half-maximal effect; the source files actives as falling curves though it sought activators and does not explain the sign; nearly all actives have a fitted effect of over 65% in size; many hits overshoot -100%
Target sequence (P80244 whole entry, looked up): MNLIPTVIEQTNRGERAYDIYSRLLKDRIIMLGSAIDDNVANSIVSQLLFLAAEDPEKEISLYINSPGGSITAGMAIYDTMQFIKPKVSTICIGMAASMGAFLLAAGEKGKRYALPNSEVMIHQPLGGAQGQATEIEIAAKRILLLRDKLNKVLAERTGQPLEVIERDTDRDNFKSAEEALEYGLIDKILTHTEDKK
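ClpP 10 microg/mL final, pH 8 Tris/KCl buffer with BSA, glycerol, Tween-20; compound pinned in; FRET-FV substrate; RT 20 min; Ex320/Em430; ΔFRET vs ADEP 5.8 microM, DMSO, no enzyme.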
Menin-MLL FL inh: qHTS Assay for Inhibitors Targeting the Menin-MLL Interaction in MLL Related Leukemias: Competition With Fluorescein Labeled MLL-derived Peptide. Fluorescence polarization, fluorescein-MLL peptide displacement from menin. 290,000 tested, under 10 active. FP activity change, % at 61.4 µM. AID 1766, 2009; inconclusive = falling polarisation curve, or a change in total fluorescence; inactive = total fluorescence flat and polarisation flat or rising; no compound was filed as active; the % refers to the polarisation; negative = inhibition;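 note: % of control where 0% means no effect; inhibitors lower the polarisation; unlabelled MLL peptide was the positive control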
TRPV1 PAM: HTS Assay for Compounds that Act as Potentiators of the Vanilloid Receptor 1. Transient receptor potential cation channel subfamily V member 1 (Homo sapiens), Q8NER1. TRPV1-expressing cells, Fluo-8 calcium influx, capsaicin EC20 potentiation; host cell line not named in the record; control for the full effect not named in the record. potentiation, % at 8.33 µM. actives 0.02% (n = 320,000). AID 540277, 2011; active means potentiation above 80%; inconclusive means 30% to 80%; inactive means below 30%; note: 0% is about no effect
Target sequence (Q8NER1 whole entry, looked up): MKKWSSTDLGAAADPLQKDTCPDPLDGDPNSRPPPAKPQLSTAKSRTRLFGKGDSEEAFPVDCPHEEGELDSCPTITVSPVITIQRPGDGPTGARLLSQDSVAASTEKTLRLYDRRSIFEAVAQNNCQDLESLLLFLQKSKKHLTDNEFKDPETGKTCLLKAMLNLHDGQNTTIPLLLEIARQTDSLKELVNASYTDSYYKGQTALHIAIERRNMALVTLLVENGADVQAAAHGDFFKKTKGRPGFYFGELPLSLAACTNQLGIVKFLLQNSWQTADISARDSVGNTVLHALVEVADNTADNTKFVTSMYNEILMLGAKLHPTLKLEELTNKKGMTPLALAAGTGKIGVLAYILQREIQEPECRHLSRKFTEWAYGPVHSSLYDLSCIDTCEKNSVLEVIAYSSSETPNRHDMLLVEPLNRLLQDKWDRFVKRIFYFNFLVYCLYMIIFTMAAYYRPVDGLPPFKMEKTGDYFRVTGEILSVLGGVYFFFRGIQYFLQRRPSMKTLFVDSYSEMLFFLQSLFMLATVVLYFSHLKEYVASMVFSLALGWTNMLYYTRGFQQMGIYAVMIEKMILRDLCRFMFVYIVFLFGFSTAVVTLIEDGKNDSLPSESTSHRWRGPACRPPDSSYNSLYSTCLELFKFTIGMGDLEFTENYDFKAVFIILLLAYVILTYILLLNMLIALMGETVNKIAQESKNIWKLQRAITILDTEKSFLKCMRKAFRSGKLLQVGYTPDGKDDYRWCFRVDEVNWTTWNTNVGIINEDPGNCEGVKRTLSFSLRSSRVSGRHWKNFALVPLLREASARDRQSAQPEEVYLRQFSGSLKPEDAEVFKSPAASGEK
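Fluo-8 calcium influx in TRPV1-expressing cells, kinetic read (ex 480/em 520 nm). Compound added and read 3 min for agonist activity, followed by capsaicin at EC20 final and 2 min further read for enhancement.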
gsp antag: qHTS for Antagonists of gsp, the Etiologic Mutation Responsible for Fibrous Dysplasia/McCune-Albright Syndrome: qHTS | gsp-mutant cells, cAMP HTRF, 30 min; control for the full effect not named in the record | Potency, µM (top dose mostly 76.9 µM), without a hit: at the highest dose activity change, negative = inhibition, most hits filed as inhibitors | actives 0.4% (n = 340,000); active = falling curve of any shape with a large fitted effect; inconclusive = falling curve, mostly with a smaller effect; inactive = flat or rising curve; cell line not stated here;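 note: intracellular cAMP measured with PDE inhibitor Ro 20-1724 present during compound exposure; potency is the fitted concentration of half-maximal effect; % is set by controls: 0 for no effect and ±100 for the full control effect; nearly all actives have a fitted effect of over 65% in size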
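G418-selected cells were plated in DMEM/10% FBS for 16-24 h at 37C, then treated with compounds plus the PDE inhibitor […] (300 uM solution added) for 30 min at 37C. Intracellular cAMP was measured by HTRF after 30 min lysis at room temperature.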
gsp ag: qHTS for Agonist of gsp, the Etiologic Mutation Responsible for Fibrous Dysplasia/McCune-Albright Syndrome: qHTS | Potency, µM (doses to about 76.9 µM), for inactives: at the highest dose activation (cAMP increase), most hits filed as activators | actives 0.13% (n = 340,000) | AID 624287, 2012 | gsp mutant cells, cAMP HTRF, 30 min; control for the full effect not named in the record; active = well fitted activation curve with a large enough effect; inconclusive = small, poorly fitted or top-dose-only effect, or another doubt; inactive = no such curve, though single readings can be large or run the other way; cell line not stated here;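 note: phosphodiesterase inhibitor Ro 20-1724 added with compounds to block cAMP breakdown; potency is the fitted concentration of half-maximal effect; nearly all actives have a fitted effect of over 60% in size; about a fifth of the inactives were tested at one dose only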
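Cells stably selected in G418 were plated at 2000/well, grown 16-24 hr, then given compounds in DMSO with the PDE inhibitor […] (300 uM solution added) for 30 min at 37C; cAMP was read by HTRF.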
Active calls of the source: *; ? = inconclusive; . = not tested or not shown; & = joins results of further samples; [ ] = dose if it differs, or a comment. Rows were taken by chance; any-hit rate near 4.9%.

SMILES,TRPML1 blocker,Sfp PPTase inh,ClpP mod,Menin-MLL FL inh,TRPV1 PAM,gsp antag,gsp ag
COc1ccc(CNC(=O)COC(=O)/C=C/c2cccc(Br)c2)cc1,-3,23%,.,-3.3,-18,-5%,-38%[inhibitor]
C=CCOc1c2ccc(C(=O)NCc3ccccc3OC)cc2nn1C,-9,2%,3.4%,0.1,23,12%,.
CCCCC(=O)N(CCOC)c1nnc(-c2cccnc2)s1,-8,-14%,-4.2%,1.6,-16,-5%,15%
CCn1c(CN2CCOCC2)nnc1SCC(=O)Nc1ccccc1C,-1,12%,0.9%,.,7,8%,-2%[15.4 µM]
O=C(NC(=S)Nn1cnc2c(cnn2-c2ccccc2)c1=O)c1ccc(Oc2ccccc2)cc1,-16,-2%,-1.3%,6.5,21,2%,-26%
CCOc1ccc(NC(=O)c2ccncc2)cc1,15,-5%,1.5%,4.0,-14,6%,15%
COC(=O)CN1C(=O)N/C(=C/c2cc3c(cc2OC)OCO3)C1=O,-4,-3%,.,-5.4,6,-3%,-13%[15.4 µM]
CCOc1ccc(-n2c(=O)c3ccccc3c3ccccc3c2=O)cc1,22,5%,.,0.4,1,-15%,2%[15.4 µM]
CC(C)(C)NC(=O)C(=O)NNC(=O)c1ccco1,-10,79µM*,2.5%,5.8,5,9%,18%
Cn1c(=O)c([N+](=O)[O-])c(Cl)c2ccccc21,5,-5%,-1.7%,-2.2,2,28µM*,-2%[15.4 µM]
CC(=O)n1cc(Nc2ccccc2C(=O)O)c2ccccc21,9,7%,?,3.5,20,-5%,13%
Cc1[nH]c(=O)c(C#N)cc1-c1ccncc1,-11,13%&9%&4%&5%,4.4%,1.7,8,29%,.
Cc1ccc(-c2nn(-c3ccc(F)cc3)cc2C(=O)N2CCN(C3CCS(=O)(=O)C3)CC2)cc1 (stereo not drawn),14,.,-4.2%,.,-28,-8%,14%
Cc1ccn2c(CNCCn3cccn3)c(C(=O)N3CCCCCC3)nc2c1,9,-10%,.,-1.9,-1,1%,-15%[15.4 µM]
COc1ccc(C)cc1NC(=O)Nc1cccc(C(=O)O)c1,-7,-9%,.,1.7,23,6%,?
CC(=O)N1CCc2c(sc(NC(=O)Cc3ccc(F)cc3)c2C#N)C1,11,13%,-3.4%,-0.8,?,7%,?
O=C(N/N=C/c1cccs1)c1ccccn1,21,50µM*,-2.9%,0.8,-52,7%,-2%
COc1ccc(NC(=S)N(Cc2ccc(C(=O)O)cc2)Cc2ccc(OC)c(OC)c2)cc1,-3,?,.,-3.3,-5,?,-28%
COc1ccc(Cc2nnc(SCC(=O)N(C)CC(=O)Nc3ccc(C)cc3)o2)cc1,17,.,0.6%,.,6,-26%,4%
CCOC(=O)C1=C(COC(=O)/C=C/c2ccc(SC)cc2)NC(=O)NC1C (stereo not drawn),-19,.,.,.,1,0%,1%[15.4 µM]
O=C(NCc1cccnc1)c1cccc(-c2cc3ccccc3oc2=O)c1,-7,-18%,.,-5.8,-12,-7%,9%
O=C(CC12CC3CC(CC(C3)C1)C2)N1CCCC1,1,-2%,0.0%,-1.5,4,6%,-13%
O=C(CSc1nnnn1C1CCCCC1)Nc1ccccc1N1CCOCC1,16,-1%,1.8%,-2.3,0,-8%,-4%
Cc1ccc(CNC(=O)CN(C)S(=O)(=O)c2cccc3nsnc23)cc1,-12,8%,-2.1%,-0.2,2,3%,-5%
Cc1nc(Cl)cc(N/N=C/c2ccc(O)cc2)n1,.,13%,-2.8%,-0.2,1,-1%,-51%[inhibitor]
O=C(NCCN1C(=O)S/C(=C\c2ccc(OC(F)F)cc2)C1=O)C1=COCCO1,-10,.,1.2%,.,?,-25%,0%[15.4 µM]
COc1ccc(/C=C/c2nc3ccccc3n2Cc2ccc(OC)c(OC)c2)cc1,-1,1%,3.9%,4.8,-6,-12%,10%
C=CCC[C@@H](Cc1ccc(F)cc1)C(=O)OC[C@@H](NC(=O)[C@H](CC=C)CC(=O)NCCO)C(C)(C)C,-5,.,1.6%,.,.,-21%,.
Cc1ccccc1CSc1nnc(CCCCCNC(=O)OC(C)(C)C)o1,19,13%,.,5.8,-12,?,-6%[15.4 µM]
COc1cc(Br)c(CN2C(=O)NC3(CCCCCC3)C2=O)cc1OC,-8,9%,-18%,-16,-2,0%,-17%[15.4 µM]
Cc1ccc(S(=O)(=O)NNC(=S)NCCc2ccccc2)cc1,1,22%,1.6%,1.7,?,4%,11%
Cc1ccc(O)c(C(=O)c2coc(=N)c(C(=O)NC(C)C)c2)c1,-12,-1%,-6.4%,1.4,3,-5%,-22%
COC(=O)c1cnc2c(C(F)(F)F)cccc2c1OC,-3,14%,16µM*,1.0,-3,3%,11%
Cc1c(N=C2C=C(Br)C(=O)C(Br)=C2)c(=O)n(-c2ccccc2)n1C,-5,40µM*,.,6.1,-3,?,-17%[15.4 µM]
CC(C)(C)NC(=O)CSc1nc(O)cc(=O)n1-c1ccccc1F,-9,?,-2.5%,?,-2,-15%,?
O=C(C1CCCC1)N1CCN=C1SCc1cccc([N+](=O)[O-])c1,33,9%,.,1.7,12,-2%,12%[15.4 µM]
CCOc1cc(/C=C2\C(=O)N(c3cccc(C(F)(F)F)c3)C(=O)c3ccccc32)ccc1O,2,-3%,-1.3%,?,2,8%,0%
COc1ccc(C2=[N+]([O-])C(C)(C)N(O)C2C)cc1 (stereo not drawn),8,12%,0.8%,0.2,4,1%,-2%
CN1C(=O)/C(=C/c2cn(CC(=O)NCc3ccco3)c3ccccc23)NC1=S,.,7.1µM*,.,?,15,.,.
O=C(NC1CCCCC1)N(Cc1nc2ccccc2c(=O)[nH]1)C1CCCC1,-2,1%,-1.1%,-3.1,-9,-4%,-3%[15.4 µM]
COc1cc(OC)cc(C(=O)N[C@H](C(=O)Nc2nc3ccc(S(C)(=O)=O)cc3s2)C(C)C)c1,-8,-8%,-0.3%,9.0,-6,-1%,?
Cc1csc(NC(=O)COCC(=O)O)c1-c1nc2ccccc2s1,2,-3%,.,1.4,5,-23%,-15%[15.4 µM]
O=C(CCNC(=O)c1ccco1)NCCc1ccc(Cl)cc1,42,-1%,-12%,.,-9,3%,-2%
O=C(Nc1ccccc1Cl)c1cc(S(=O)(=O)N2CCCCC2)ccc1N1CCOCC1,5,7%,-13%,-0.1,-10,-20%,7%
CN(CC(=O)Nc1cccc(S(=O)(=O)NC2=NCCC2)c1)Cc1cccc(F)c1,-10,.,1.9%,.,10,1%,20%
CC(C)CNC(=S)N(CCN(C)C)Cc1cc2cc3c(cc2[nH]c1=O)OCCO3,2,-7%,3.8%,-0.1,-9,-4%,-59%[inhibitor]
Cc1nc2ccccc2c(=O)n1NC(=O)c1ccc(Cl)c(Cl)c1,48,9%,-1.5%,-0.4,-4,-9%,22%
Cc1cc(C)n2c(SCC(=O)NC3CCCCC3)nnc2n1,-5,8%,-3.2%,0.4,12,4%,14µM*
CN(CCCS(=O)(=O)[O-])c1ccc(/C=C/c2ccc3ccccc3[n+]2C)cc1,-4,-9%,1.7%,5.0,9,-21%,-18%
CC(NC(=O)c1ccc2c(c1)S(=O)(=O)N=C1CCCCCN12)c1ccc(S(N)(=O)=O)cc1 (stereo not drawn),-2,5%,-1.6%,.,-5,10%,16%[15.4 µM]
O=C(COc1ccc2c3c(c(=O)oc2c1)CCC3)N1CCCC1,12,15%,.,-0.7,10,-20%,27%[15.4 µM]
CCOc1ccc(N=Nc2cc(C(C)C)ccc2O)cc1,-17,6%,-1.2%,-0.8,-4,3%,4%
COc1ccc(N(CC(=O)N2CCN(c3ccccc3)CC2)S(=O)(=O)c2c(C)noc2C)cc1,28,0%,2.8%,1.8,.,-7%,-11%
O=S(=O)(NC(=NCc1ccccc1)c1ccccc1)c1ccc(Br)cc1,23,11%,-16%,0.1,0,-16%,?
Cc1ccc(CC2CC(=O)N(c3ccc(Cl)cn3)C2=O)cc1 (stereo not drawn),-5,12%,-0.4%,3.2,5,3%,-7%
Cc1ccccc1Cn1c(C(C)O)nc2ccccc21 (stereo not drawn),-19,21%,-0.1%,0.4,1,-1%,9%

Going on with the list:
SMILES,TRPML1 blocker,Sfp PPTase inh,ClpP mod,Menin-MLL FL inh,TRPV1 PAM,gsp antag,gsp ag
COc1cc(OC)cc(C(=O)NC(C)CNc2ccc(Cl)cc2[N+](=O)[O-])c1 (stereo not drawn),-8,1%,-0.9%,-1.2,3,-19%,0%
O=C(c1ccccc1)C1Oc2ccccc2C2CC(c3cccs3)=NN12 (stereo not drawn),-11,7%,.,2.7,1,-7%,-3%[15.4 µM]
CN(C)CCCNC(=O)c1ccc2[nH]c3ccccc3c2c1,-8,-2%,13µM*,1.2,24,6%,-42%[inhibitor]
CSCCC(=O)N(C)CC1CCCN(CCc2cccc(C(F)(F)F)c2)C1 (stereo not drawn),0,12%,0.8%,-1.8,4,13%,-12%
N=c1c2c(n(Cc3ccc(F)cc3)c3c1CCC3)CCCC2,16,19%,0.2%,1.3,-3,7%,2%
